From PubChem BioAssay
BJeLR viability – MLPCN primary cell-based screen for lethality selective to Ras in HRASV12 cells. BJeLR (HRASV12) viability, CellTiter-Glo ATP luminescence, 48 h; reference of the scale not given here. inhibition, % (concentration not given with the values). AID 1554, 2009. 300,000 compounds, 0.17% hits;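 active means replicate mean above 50%; inconclusive means above 50% but judged a plate artefact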;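 further: 50 nL library stock added to about 25 µL; numbers are from one replicate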
Mtb hypoxia inh – PubChem AID 1159583 | M. tuberculosis hypoxia-regulated fluorescent reporter, fluorescence | fluorescence inhibition, % (test concentration not listed) | 300,000 compounds, 0.1% hits;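 active means 35 to 45% if threefold the growth effect, above 45% if 1.5-fold the growth effect; inactive means the rest, general growth blockers included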;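 further: wells of about 50 µL received 100 nL stock; 0% = vehicle wells and 100% = reference inhibitor wells; whole bacteria with a GFP reporter of the hypoxia response; strong numbers were not always called active; many hits fall short of the cut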
PrP 5UTR inh – inhibition of PrP 5' UTR reporter expression; cell-based PrP 5' UTR mRNA reporter, plate reader; inhibition, % (no concentration beside the values); 340,000 compounds, 0.35% hits;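 active means every replicate at 50% or more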;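 further: 0 = median of the neutral control wells; tested in H4 reporter cells; numbers are from one replicate; inactives centre near -14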
Sa ugtP lethal – growth inhibition of ugtP-null S. aureus, primary screen, RN4220 ugtP deletion, OD600; 16 h; some inactives read as strong as hits; growth inhibition, % (test concentration not listed); AID 1259309, 2017; 330,000 compounds, 0.54% hits;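 active means z-score under -3 and OD600 up to 0.15 on both plates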;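 further: plate controls were untreated wells for no effect and antibiotic for full effect; wells of about 80 µL received 100 nL stock; the first replicate is given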
Sa RN4220 lethal – growth inhibition of S. aureus RN4220, primary screen, OD600. 330,000 compounds, 0.33% hits. 16 h. inhibition, % (test concentration not listed);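 active means z-score of -3 or lower and OD600 up to 0.18 on both plates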;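 further: plate controls were untreated cells for no effect and reference antibiotic for full effect; stock transfer was 100 nL into about 80 µL; one replicate is shown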
Autofluor counter – compound fluorescence in toxin protease inhibitor counterscreen. compound autofluorescence counterscreen, microsphere flow cytometry; active compounds read high. 360,000 compounds, 3.1% hits. AID 624483. fluorescence intensity (concentration not given with the values);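 active means at least 3 SD above the mean of all compounds, about 16000 in these data; inconclusive means too few beads counted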;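 further: 100 nL of 1 mM stock went into each well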
Mtb hypoxia inh growth – further read-out of Mtb hypoxia inh, marked with its call; growth inhibition, %; measured here: M. tuberculosis growth (absorbance);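 0% = vehicle and 100% = reference antibiotic; read after six days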
Numbers without * were called inactive; u = inconclusive; x = not tested or not shown. An unsorted share of the library, and some 4.1% of all compounds hit somewhere here.

SMILES	BJeLR viability	Mtb hypoxia inh	Mtb hypoxia inh growth	PrP 5UTR inh	Sa ugtP lethal	Sa RN4220 lethal	Autofluor counter
CCOC(=O)C1CCCN(c2ncnc3c2oc2ccccc23)C1 (configuration not stated)	1	8	5	-60	16	7.4	2766
Cc1ccc(CSc2nc3nc(C)cc(C)n3n2)cc1	-1	13	6	0	5	4.9	3704
O=C1c2cccc3cccc(c23)C(=O)N1CCCn1ccnc1	10	-1	-9	x	5	2.6	4014
CC1CCN(C(=O)Cn2c(=O)n(CCc3ccccc3)c(=O)c3ccccc32)CC1	8	x	x	-17	1	-3.9	4198
c1nc(N2CCCCCC2)c2[nH]cnc2n1	5	7	11	12	-4	-0.8	5711
COc1ccc(/C=C2\CCC/C(=C\c3ccc(OC)c(OC)c3OC)C2=O)c(OC)c1OC	19	-6	1	2	4	-0.2	3882
COc1ccccc1CNS(=O)(=O)c1ccc(NC(C)=O)cc1	2	0	4	-1	-1	7.2	22915*
COc1ccc(N2CCN(C(=O)c3cccc(Cn4cc(Cl)cn4)c3)CC2)cc1	14	18	7	-16	14	0.4	8318
CC(c1ccccc1)N1CCn2c(nc3cc(NS(C)(=O)=O)ccc32)C1 (configuration not stated)	-13	4	-5	-14	-5	3.5	4912
Cc1csc(NC(=O)c2ccc(C(=O)Nc3nc(C)cs3)cc2)n1	13	12	-5	x	-12	2.1	x
COC(=O)c1nnn(CC(=O)Nc2cc(Cl)ccc2C)c1C(=O)OC	-9	x	x	-5	3	6.7	4852
Cn1cc(CNC(=O)c2ccc3nc(Cc4ccccc4F)oc3c2)cn1	3	3	3	-40	5	3.2	5133
C(=N\Nc1nc(N2CCCC2)nc(N2CCCC2)n1)/c1cccnc1	-7	x	x	-16	x	x	2607
CCCCOCCCNC(=O)c1c(-c2ccccc2)noc1C	-6	9	1	-9	-3	-8.0	3461
CN(C)CCCn1c2c(c(SCC(=O)Nc3cccc4ccccc34)nc1=O)CCC2	16	14	8	-16	5	2.7	u
O=C(c1ccco1)N1CCN(S(=O)(=O)c2ccc3c(c2)CCN3C(=O)C2CCC2)CC1	-9	15	13	-9	-1	5.4	4248
Cc1ccc(C)c(OCc2cc(C(=O)N3CCN(c4ccccc4C)CC3C)no2)c1 (configuration not stated)	6	-11	1	-16	-4	-3.8	6073
Cc1cc(C)c(S(=O)(=O)N2CCN(C)CC2)c(C)c1	4	6	-2	-7	7	4.8	8320
COCCN1C(=O)c2ccccc2C(C(=O)NCCCN2CCCC2)C1c1c[nH]c2ccccc12 (configuration not stated)	2	x	x	x	3	5.2	x
Cc1ccc(Nc2nc(-c3sc(NC(=O)c4ccccc4)nc3C)cs2)cc1	-3	15	8	47	-2	-1.6	3485
CC(=O)Nc1ccc(S(=O)(=O)N/N=C/c2cccnc2)cc1	5	x	x	-9	x	x	5292
C/C(=C\C(=O)c1ccc(F)cc1)NCc1ccc2c(c1)OCO2	-1	x	x	-11	x	x	3802
COc1ccc(C(=O)Oc2cc(N)n(S(=O)(=O)c3ccc(C)cc3)n2)cc1	9	0	3	-17	12	0.2	4863
CCOC(=O)c1cnc2c(ccc3ccccc32)c1NCCO	-7	x	x	-32	-18	-4.1	4407
CN(CC(=O)Nc1ccc(Cl)cc1)CC(=O)Nc1cccc(Br)c1	7	8	11	-32	-9	-14	3724
CCC(=O)Nc1ccc(C(=O)OCc2ccccc2Cl)cc1	2	4	7	-71	-9	2.3	5105
CCc1cc(C(=O)OC)c(NC(=O)CSc2nccn2C)s1	7	5	-5	-8	8	4.5	4198
CC1CCCN(C(=O)COC(=O)COc2ccc(C#N)cc2)C1 (configuration not stated)	x	1	-7	-16	9	4.8	6691
CCc1ccccc1NC(=O)CN(C)C(=O)Cn1cnc2ccc(Cl)cc2c1=O	x	3	0	-9	14	7.1	6650
Cc1ccc(S(=O)(=O)N(C)CC(=O)N(CC(C)C)C2CCS(=O)(=O)C2)cc1 (configuration not stated)	-2	-4	7	-16	3	1.5	x
CC(C)(C)n1nc2c(c1NC(=O)c1ccc(C(F)(F)F)cc1)CS(=O)(=O)C2	-2	11	6	-6	4	0.6	4332
O=[N+]([O-])c1ccc(C=NN/C(=N/c2ccccn2)c2ccccn2)cc1	x	-7	5	x	2	0.2	x
c1ccc(CCc2cc3ccccc3[nH]2)cc1	x	11	0	-31	2	-2.6	3627
Cc1ccc([N+](=O)[O-])cc1NC(=O)c1ccc2c(c1)OCO2	1	11	8	-27	5	1.4	2583
COC(=O)c1ccc(CNC(=O)c2ccc(NS(=O)(=O)c3ccc4[nH]c(=O)[nH]c4c3)cc2)cc1	-8	6	6	-18	-3	4.8	5999
Nc1ccc(C(=O)N/N=C/c2cccc(Oc3ccccc3)c2)cc1	-3	x	x	-26	x	x	5930
Cc1ccc(NC(=O)CS(=O)CC(=O)N(CC(=O)NC2CCCC2)c2cccc(C)c2C)cc1 (configuration not stated)	-6	13	3	-32	-6	5.7	5739
CCOC(=O)N1CCN(C(=O)c2ccc(OCC)c(OCC)c2)CC1	-3	x	x	-13	-2	0.9	2669
O=S1(=O)CCN(Cc2ccc(Cl)c(Cl)c2)CC1	0	x	x	-29	-4	-1.0	3585
Cc1ccc(S(=O)(=O)Nc2ccc(S(=O)(=O)NCC3CCCO3)cc2)cc1 (configuration not stated)	-6	-3	1	-15	4	1.6	3978
Cc1cccc(C)c1OCC(=O)NNC(=O)c1ccoc1C	-11	14	4	-12	-1	6.2	2473
O=C1C2C3C=CC(C3=C3CCCCC3)C2C(=O)N1Cc1ccccc1 (configuration not stated)	-3	10	16	-1	-10	-3.9	10597
CCOC(=O)C(/C=C(\C#N)C(=O)OCC)=C(/N)N1CCN(c2ccc(Cl)cc2)CC1	-5	1	34	1	3	12	x
Cc1ccc(CC(NC(=O)c2ccccc2)C(=O)NC(Cc2ccccc2)C(=O)O)cc1 (configuration not stated)	-2	6	1	1	2	6.3	4072
COc1ccc([C@H]2CC(=O)C=C(c3ccc(C)c4ccccc34)C2)cc1	x	10	-2	-9	42	1.7	3088
COc1ccc(CN2CC[C@@H](N3CCOCC3)[C@H](O)C2)cc1F	-10	11	0	-12	2	-1.3	4570
CC12CN3CC(C)(CN(C1)C3c1cccs1)C2O (configuration not stated)	0	3	1	-11	10	6.6	17129*
COc1ccc(-c2coc3cc4oc(=O)c(CC(=O)O)c(C)c4cc23)cc1	6	-16	2	-53	3	-1.4	3654
CCN(CCCl)Cc1ccccc1Br	8	2	4	18	-2	6.3	5612
COc1cc(/C=C2/SC(=S)N(Cc3ccccc3)C2=O)ccc1O	-6	5	2	-15	9	11	3622
O=C(NCCc1nc(-c2ccccc2)cs1)c1ccc(Br)cc1	1	11	-8	-26	-1	-14	6433
Cc1ccsc1C(=O)Nc1nnc(-c2ccco2)o1	1	-6	3	-2	5	18	10057
CCN(N=Cc1ccc(N(C)C)cc1)c1nc2ccccc2[nH]1	x	5	0	x	2	1.8	x
O=C(NC1CCCCC1)C(c1ccccc1)N(Cc1cccnc1)C(=O)c1csnn1 (configuration not stated)	-7	-2	-1	-14	4	2.8	5647
COc1ccc2[nH]c(=O)c(CN(C(=O)NC3CCCCC3)C3CCCCC3)cc2c1	-1	2	-3	-19	-1	3.1	10095
CN1CC2C3C(=O)N(C)C(=O)C3[C@](C)(C1=O)N2C(=O)c1ccc(F)cc1 (some centres not stated)	x	18	4	x	4	5.2	x
CC(=O)Nc1ccc(NC(=O)c2ccc(NS(=O)(=O)c3cccc4cccnc34)cc2)cc1	3	5	8	-14	-1	2.0	3563
COc1ccc([N+](=O)[O-])cc1NC(=O)c1ccc(C)o1	-9	13	10	-15	6	6.6	2526
Cc1ccc(NC(=O)Nc2nnc(-c3ccccc3F)s2)cc1	-6	-12	-3	-55	3	5.6	5843
CC(C)[C@H](N)c1nnc(SCc2ccc(Cl)cc2)o1	-16	8	19	-11	3	4.6	25032*

Profiles, looked up by structure. Screens in order: BJeLR viability	Mtb hypoxia inh	Mtb hypoxia inh growth	PrP 5UTR inh	Sa ugtP lethal	Sa RN4220 lethal	Autofluor counter
CC(=O)Nc1ccc(NC(=O)c2ccc(NS(=O)(=O)c3cccc4cccnc34)cc2)cc1 as listed: 3	5	8	-14	-1	2.0	3563
COc1ccc(-c2coc3cc4oc(=O)c(CC(=O)O)c(C)c4cc23)cc1 as listed: 6	-16	2	-53	3	-1.4	3654
CCN(CCCl)Cc1ccccc1Br as listed: 8	2	4	18	-2	6.3	5612
CC12CN3CC(C)(CN(C1)C3c1cccs1)C2O (configuration not stated) as listed: 0	3	1	-11	10	6.6	17129*

Further results.
SMILES	BJeLR viability	Mtb hypoxia inh	Mtb hypoxia inh growth	PrP 5UTR inh	Sa ugtP lethal	Sa RN4220 lethal	Autofluor counter
CC(C)C[C@H](NC(=O)CCCn1nnc2ccccc2c1=O)C(=O)O	0	12	2	-14	4	1.5	4309
CN(C)C(CNC(=O)c1ccc(C(F)(F)F)cc1)c1ccco1 (configuration not stated)	-1	13	16	1	9	5.5	4428
Cc1nc2sc(C(=O)Nc3ccccc3Cc3ccccc3)c(C)c2c(=O)[nH]1	7	5	-1	3	2	8.3	5549
O=C(O)c1cccc(Nc2nc(-c3cc4ccccc4oc3=O)cs2)c1	-4	15	5	-45	-3	13	4300
COc1ccc(/C(C)=C2/SC(=S)N(CCC(=O)O)C2=O)cc1	5	-7	-4	-15	-1	0.1	19144*
O=C(NNC(=S)Nc1ccccc1C(F)(F)F)c1cccnc1	7	19	15	-25	3	-0.5	4426
Cc1cccc(-c2nc(CN3CCCC(C(=O)NC4CCCCCC4)C3)c(C)o2)c1 (configuration not stated)	-10	-22	-12	-17	-9	2.9	x
O=C(c1ccc(Br)cc1)c1cc([N+](=O)[O-])ccc1N1CCCCC1	36	10	4	58*	6	-0.1	9346
C=C1CCN(C(Cc2ccccc2)C(=O)N2CCOCC2)S(=O)(=O)c2ccccc21 (configuration not stated)	x	0	5	x	9	7.4	x
Cc1cc(SCC(=O)N2CCC(c3noc4ccc(F)cc34)CC2)nc2ccccc12	-7	1	13	-14	-34	9.4	10753
CN(C)c1nc(N(C)C)nc(N2CCCCC2)n1	-7	10	5	-22	15	7.5	u
CCCn1c(=O)n(C)c(=O)c2c(SCC(=O)Nc3cc(C)on3)nc(C(C)(C)C)nc21	x	6	0	-12	6	4.5	3091
COc1ccc(NC(=S)NCc2cccs2)cc1	-2	6	6	75*	3	2.4	4058
COc1nc(NCC2CCCO2)nc(N2CC3CC(C2)c2cccc(=O)n2C3)n1 (configuration not stated)	9	5	7	-29	11	3.9	5596
COc1cc(C(=O)ON=C2C=C(C)C(=O)C(C)=C2)cc(OC)c1OC	-3	5	11	-9	-2	1.7	1984
CC1CCCN(C(=O)CCCn2c(=S)[nH]c3ccccc3c2=O)C1 (configuration not stated)	-8	4	8	-24	1	1.6	5210
O=C(C[n+]1cc(Br)cc(Br)c1)c1cccc([N+](=O)[O-])c1	-2	5	-2	-11	1	2.1	2464
Cc1cc(C(=O)N2CCCC2)n[nH]1	-3	8	12	0	3	1.5	6082
COc1cc(OC)c(C(=O)NNC(=O)c2ccccc2-n2cccc2)cc1OC	x	10	13	x	8	2.4	x
CSC(=NN(C)C(N)=O)c1ccccc1	x	-4	2	x	15	8.5	x

Two neighbouring records already listed, quoted:
SMILES	BJeLR viability	Mtb hypoxia inh	Mtb hypoxia inh growth	PrP 5UTR inh	Sa ugtP lethal	Sa RN4220 lethal	Autofluor counter
Cc1nc2sc(C(=O)Nc3ccccc3Cc3ccccc3)c(C)c2c(=O)[nH]1	7	5	-1	3	2	8.3	5549
O=C(O)c1cccc(Nc2nc(-c3cc4ccccc4oc3=O)cs2)c1	-4	15	5	-45	-3	13	4300

Further compounds.
SMILES	BJeLR viability	Mtb hypoxia inh	Mtb hypoxia inh growth	PrP 5UTR inh	Sa ugtP lethal	Sa RN4220 lethal	Autofluor counter
COc1ccc(NC(=O)CN(C)C(=O)c2ccc(COc3ccccc3)o2)cc1	2	1	1	5	5	-0.7	u
Cc1ccc(S(=O)(=O)N2CCOCCOCCOCCOCCOCC2)cc1	4	7	11	-28	16	5.8	3159
OCCNc1nc(-c2ccccc2)c2cc(Br)ccc2n1	-7	x	x	-6	x	x	4109
Cc1oc(-c2ccccc2F)nc1CN1CCC(C(=O)NC2CC2)CC1	-6	13	6	-48	-11	4.3	20198*
CCOC(=O)c1ccc(NC(=O)CSc2nnnn2CCCO)cc1	-5	-2	14	-23	-2	1.8	22895*
Cc1cccc(C(=O)Nc2cccc(C(=O)Nc3cc(C)ccn3)c2)c1	14	9	6	-13	2	5.2	3631
CCOC(=O)N1CCC(NC(=O)CCCC(=O)O)CC1	11	3	2	-3	-3	1.1	5938
